Screening results as filed in PubChem.
Mtb growth – M. tuberculosis H37Rv growth inhibitors, H37Rv strain (AID 1626); M. tuberculosis H37Rv growth inhibition; higher % means a stronger effect; inhibition, % at 10 µM, or IC50 in µM where a hit was titrated; actives 0.95% (n = 220,000);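 active = confirmed in a dose series; inconclusive = inhibition above 80% but not taken into the dose series; inactive = below 80% or under 30% at every dose of the series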;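 also: bacteria incubated seven days before Alamar blue readout; 0% = bacteria only wells and 100% = bacteria with antibiotic wells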
YopH inh – blocks Yersinia enterocolitica YopH tyrosine phosphatase | fluorescence Ex485/Em525 | inhibition, %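 (about 10 µM by stock and volumes)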 | actives 0.16% (n = 140,000) | AID 898;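 active = inhibition of 50% or more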;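 also: controls were vehicle for no effect and minimum signal wells for full effect; inactives centre near -20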
Arbovirus anti – arbovirus infection inhibition | inhibition, % at 10 µM | actives 0.37% (n = 200,000) | arbovirus infection cell-based antiviral screen | AID 1251;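 active = inhibition from about 30%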;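 also: bluetongue infection of BSR cells; cell survival read as ATP light after 72 h; 0% = infected wells without compound and 100% = uninfected wells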
Mtb betalactam – beta-lactam sensitization of Mtb H37Rv. inhibition, % at 25 µM. actives 0.27% (n = 330,000). M. tuberculosis H37Rv growth with meropenem, percent inhibition; hits of this screen are not shown here;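 active = about 74% or more and at least 40 points above the plate without the antibiotic, then above 30% in a dose series; inconclusive = first-round hits that could not be retested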;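 also: growth measured after seven days incubation then overnight dye step; 0% = bacteria only wells and 100% = bacteria with antibiotic; twin plates without the antibiotic show which effects depend on it; some results filed as inactive read as strong as hits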
RecA intein inh – Mtb RecA intein splicing inhibition. inhibition, %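 (about 9 µM by stock and volumes)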. cell-free RecA intein splicing, fluorescence. P9WHJ3. actives 0.75% (n = 290,000). AID 2221; in the data active = inhibition above about 30%; inconclusive = no clear call, values can overlap the other calls;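 also: 0% = vehicle wells and 100% = reference inhibitor control wells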
Target sequence (P9WHJ3 whole entry, looked up): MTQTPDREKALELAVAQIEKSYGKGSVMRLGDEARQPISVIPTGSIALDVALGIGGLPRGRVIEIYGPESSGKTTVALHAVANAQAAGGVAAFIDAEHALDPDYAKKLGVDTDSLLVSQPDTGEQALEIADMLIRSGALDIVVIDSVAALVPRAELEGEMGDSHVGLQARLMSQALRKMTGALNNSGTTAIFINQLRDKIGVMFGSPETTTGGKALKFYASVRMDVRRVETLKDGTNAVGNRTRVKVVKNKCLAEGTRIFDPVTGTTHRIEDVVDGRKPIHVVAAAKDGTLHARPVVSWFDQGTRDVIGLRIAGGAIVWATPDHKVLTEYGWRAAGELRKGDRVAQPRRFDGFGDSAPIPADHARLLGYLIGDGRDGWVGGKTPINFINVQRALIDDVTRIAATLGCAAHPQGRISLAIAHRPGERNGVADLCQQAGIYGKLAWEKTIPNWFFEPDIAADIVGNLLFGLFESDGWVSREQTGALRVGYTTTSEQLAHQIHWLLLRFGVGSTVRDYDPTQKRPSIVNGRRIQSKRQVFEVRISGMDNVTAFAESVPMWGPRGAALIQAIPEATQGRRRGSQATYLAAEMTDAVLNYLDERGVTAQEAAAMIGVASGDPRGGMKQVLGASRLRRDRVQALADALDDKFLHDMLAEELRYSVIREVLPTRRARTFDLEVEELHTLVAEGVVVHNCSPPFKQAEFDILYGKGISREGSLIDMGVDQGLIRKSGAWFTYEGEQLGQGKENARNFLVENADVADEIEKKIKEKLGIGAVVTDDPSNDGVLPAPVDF
Arbovirus anti repeat – recorded beside Arbovirus anti, whose call it bears; inhibition, %; measured here: 10K subset replicate screen; many hits read low in the repeat;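 first of two repeat runs on a subset; 0% = infected and 100% = uninfected wells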
Active calls of the source: *; i = inactive; ? = inconclusive; . = not tested or not shown; & = joins results of further samples. Some of the compounds tested; count on the stated rates, not on these rows.

SMILES	Mtb growth	YopH inh	Arbovirus anti	Mtb betalactam	RecA intein inh	others
CC(O)CN1C(=O)C(CC(=O)Nc2ccc(Cl)cc2)SC1=Nc1ccccc1 (centres undefined)	19%	-6	-17	13	-0.8	Arbovirus anti repeat=-21
CCOc1ccc(-c2nc(CN3CCCC(C(=O)N4CCOCC4)C3)c(C)o2)cc1 (centres undefined)	.	.	.	?	0.1
CCOC(=O)Cn1cc(C#N)c2cccc(CC)c21	?	.	7	99	-3.4
Cc1ccc(N2C(SCC(=O)O)=NC(=Nc3cccc(C)c3)C23CCCC3)cc1	2%	.	-4	3	4.0
O=C(NNc1cc(C(F)(F)F)ccc1Cl)c1ccc(=O)[nH]c1	.	.	.	84	-9.4
CC(C)CCNC(=O)CN(Cc1ccccc1)C(=O)CCC(=O)Nc1nccs1	.	.	.	5	-5.4
COC(=O)c1ccc(C(=O)N2CCCC(CNC(=O)c3ccccc3Cl)C2)cc1 (centres undefined)	4%	.	-1	1	-0.6
CNc1sc(C(=O)c2ccccc2F)c(N)c1-c1nc2ccccc2s1	3%	-18	10	-1	6.4
COc1c(OC)c(O)c2c(=O)cc(-c3c(O)cccc3O)oc2c1OC	-5%	.	-7	-11	-3.9
CC(C)OC(=O)/C(=C/c1cccnc1)NC(=O)c1ccccc1	-2%	-26	0	-3	-6.6
CCOc1ccc(C(=O)NCc2ccco2)cc1OC	.	.	.	-1	-1.2
CC(C)CCn1cnc2c1c(=O)n(C)c(=O)n2C	-6%	25	10	-3	5.4
CC(=O)N(C)c1ccc(NC(=S)Nc2ccc(C(C)C)cc2)cc1	-3%	.	-15	-10	8.8
COc1cccc(NC(=O)COc2ccc(C(=O)N3CCN(C)CC3)cc2)c1	.	.	.	-6	0.2
CC(=O)O[C@@H]1/C=C/[C@](C)(O)C[C@@H](C)C/C=C/[C@H]2[C@H](O)C(C)=C(C)[C@H]3[C@H](Cc4ccccc4)NC(=O)[C@@]123	0%	.	.	-10	2.7
COc1ccccc1C(=O)Nc1cc2c(ccc3ccccc32)oc1=O	.	-8	2	6	-2.1
O=C1ON=C(c2ccccc2)/C1=C/c1ccc(O)c(O)c1	.	.	.	2	-3.7
COc1ccccc1C(O)P(=O)(OC1CCCCC1)OC1CCCCC1 (centres undefined)	-8%	.	.	0	-0.4
CCOc1cc([C@H]2[C@@H]3CCCC[C@]3(O)CCN2CC(=O)NCc2ccco2)ccc1O	-5%	-44	4	4	-1.5
CNC(=O)c1nc(C)c(C2(C)CC(c3ccccc3)=NO2)s1 (centres undefined)	-10%	.	.	1	-4.5
Cc1ccccc1-c1ccc(Nc2ccc(C(=O)N3CCOCC3)cc2)nn1	1%	-45	-2	?	-0.9	Arbovirus anti repeat=2
Cc1cccc(C)c1NC(=O)CSc1nnc(CCCCCNC(=O)OC(C)(C)C)o1	-2%	-18	1	0	-1.7
COC(=O)Nc1sc(C(=O)N(C)C)c(C)c1C(=O)OC	-10%	19	3	9	-1.5
COc1ccc(-c2nc3ccccc3c(=O)n2-c2cccnc2)cc1	-4%	-12	10	7	-2.7
O=C(CCn1cccc1)Nc1ccccc1F	-10%	-11	-5	5	-5.2
Cc1cccc(OCCSc2nnc(-c3ccoc3C)n2C)c1	-19%	-32	6	3	-0.2
COc1cc(C2SCC(=O)N2c2c(C)n(C)n(-c3ccccc3)c2=O)ccc1O (centres undefined)	11%	.	.	-16	-9.7
COCCCN1CCN(c2nnc3n2-c2sc(Br)cc2C(c2ccccc2Cl)=NC3)CC1	.	12	-2	-3	0.1
Cc1cc(C)c2c(Cn3ccnc3)cc(=O)oc2c1	.	.	.	-6	0.0
Cc1ccc(C(=O)/C=C/Nc2ccc(S(=O)(=O)Nc3onc(C)c3C)cc2)cc1	2%	-20	-6	42	-2.3
Cc1cc(NC(=O)CCC(=O)N(CC(=O)NC2CCCC2)c2ccc(Cl)cc2)no1	.	.	.	-3	4.3
O=C(N1CCOCC1)N1CCN(c2ccccc2F)CC1	-1%	-32	0	-3	1.8	Arbovirus anti repeat=-1
CC1CCCN(C(=O)Cc2ccc(F)cc2)C1 (centres undefined)	-5%	-8	0	-2	0.7
CSCCc1nc(SCC(=O)Nc2nnc(C)s2)[nH]c1C	-3%	-23	8	-13	-2.2
N#Cc1ccsc1NC(=O)CSc1nnnn1-c1ccc(O)cc1	6%	.	-2	0	.
CC(C)c1ccc(S(=O)(=O)N2CCN(C(=O)CN3C(=O)NC4(CCCCC4)C3=O)CC2)cc1	.	.	.	-3	-2.1
Cc1nc(-c2ccc(S(=O)(=O)N3CCN(C4c5ccccc5-c5ccccc54)CC3)s2)cs1	-4%	.	.	74	4.0
Cc1ccccc1-c1nnc(CN2CCC(C)CC2)o1	.	.	.	1	-2.4
Cc1ccc(S(=O)(=O)c2cc3ccc(O)cc3oc2=O)cc1C	.	.	.	-2	i
C/C(N)=C(/C#N)C(=O)COC(=O)CNS(=O)(=O)c1c(F)cccc1F	-3%	.	-3	0	-3.0
CC1CCN(C(=O)CS(=O)(=O)Cc2ccccc2)CC1	.	.	.	0	0.6
CCOc1ccc(NC(=O)CCCCn2c(=O)[nH]c3ccsc3c2=O)cc1	34%	.	-4	75	0.2
COc1ccc(NC(=O)NCC(C)CSc2ccc(C)cc2)c(OC)c1 (centres undefined)	.	.	.	8	-3.6
COCCn1c(/C=C/c2ccccc2)nc2ccccc21	7%	.	-11	-7	2.0
O=C(NCCCNC(=O)c1ccccc1F)c1ccco1	.	.	.	1	-0.3
COc1ccccc1NC(=O)NS(=O)(=O)c1ccc(C)cc1	-10%	-10	7	3	-0.6
O=C(CC(NC(=O)c1ccccc1Cl)c1ccccc1)NCCc1ccc(Cl)cc1 (centres undefined)	3%	-32	-15	-4	0.9
CCN1CCN(c2ccc(S(=O)(=O)N3CCOCC3)cc2NC(=O)/C=C/c2cccc(OC)c2OC)CC1	.	.	.	-5	-1.4
Cc1ccc(S(=O)(=O)NC(=O)NN2CC3CCCC3C2)cc1 (centres undefined)	.	.	.	0	-0.6
c1ccc(-c2ccc(C3=Nn4c(nnc4-c4cccs4)SC3)cc2)cc1	1%	.	.	64	1.5
O=C(NC(=S)Nc1nc2c(s1)CSc1ccccc1-2)c1ccccc1	9%	-2	-34	.	3.0
CC1(c2nnc(Cc3ccccc3)o2)CC(c2ccncc2)=NO1 (centres undefined)	-6%	.	.	2	-2.5
CCOc1cc2sc(N3CCC(C(=O)NCCCN4CCCC4=O)CC3)nc2cc1Br	.	.	.	2	-0.6
O=c1cc(-c2ccc(F)cc2F)[nH]c2ccccc12	-21%	1	11	-9	0.2
CCOc1ccc(C(=O)N2CCN(Cc3ccccc3)CC2)cc1	2%	-51	11	0	6.9
Cc1ccc2nc(-c3ccc(NC(=O)CN(C)S(=O)(=O)c4ccccc4)cc3)sc2c1	3%	.	0	12	-1.9
CC(CCc1ccccc1)NC(=O)CN1CCSc2ccccc21 (centres undefined)	7%	.	2	-1	-4.4
CCOC(=O)CN(C(=O)CNC(=O)c1cccs1)C(C(=O)NC1CCCC1)c1cccnc1 (centres undefined)	2%	-21	-2	-1	2.3
CCOC(=O)C1CCCN(C(=O)c2cc3c(=O)n(C)c4ccccc4c3n2C)C1 (centres undefined)	-8%	-46	-4	-2	-0.8	Arbovirus anti repeat=3
C=C1CCN([C@@H](C)C(=O)NCc2ccc(OC)cc2)S(=O)(=O)c2ccccc21	-10%	.	.	-8	-9.6

By substructure, the compounds so far containing a cyano group
SMILES	Mtb growth	YopH inh	Arbovirus anti	Mtb betalactam	RecA intein inh	others
CCOC(=O)Cn1cc(C#N)c2cccc(CC)c21	?	.	7	99	-3.4
N#Cc1ccsc1NC(=O)CSc1nnnn1-c1ccc(O)cc1	6%	.	-2	0	.
C/C(N)=C(/C#N)C(=O)COC(=O)CNS(=O)(=O)c1c(F)cccc1F	-3%	.	-3	0	-3.0

Other compounds.
SMILES	Mtb growth	YopH inh	Arbovirus anti	Mtb betalactam	RecA intein inh	others
Fc1cccc(-n2cc(-c3ccccc3)c3c(=S)nc[nH]c32)c1	.	.	.	12	11
O=C(/C=C/c1ccc(Cl)c(Cl)c1)N1CCc2ccccc21	-3%	-28	12	3	-2.9
O=S(=O)(NC1CCCCC1N1CCC(O)CC1)c1ccccc1 (centres undefined)	.	.	.	5	1.0
COc1ccc(NC(=O)c2ccc3c(c2)N(C)CCS3)cc1	.	.	.	-6	-7.1
COC(=O)c1sccc1N/N=C/c1cccc(OC)c1O	4%	-14	16	3	1.6
COc1ccc(NC(=O)C(CCSC)N2C(=O)c3ccccc3C2=O)cc1 (centres undefined)	-11%	-30	3	7	-0.3
COc1ccc(-c2csc3nc(-c4cccnc4)nc(Cl)c23)cc1OC	11%	14	-22	-1	3.9
Cc1oc(-c2ccccc2F)nc1CS(=O)(=O)CC(=O)NC(C)CCc1ccccc1 (centres undefined)	.	.	.	3	-2.2
Cc1ccc2c(c1)C(=O)N(CCCCO)C2=O	0%	1	-4	-3	-2.1
C=CC[C@@H]1C=C(C)C[C@H](C)C[C@H](OC)[C@H]2O[C@@](O)(C(=O)C(=O)N3CCCC[C@H]3C(=O)O[C@H](/C(C)=C/[C@@H]3CC[C@@H](O)[C@H](OC)C3)[C@H](C)[C@@H](O)CC1=O)[C@H](C)C[C@@H]2OC	-3%	.	.	95	7.2
O=C(Cn1nnc2ccccc21)NCc1ccccc1	2%	-44	1	-9	2.2
O=C1CCC(=O)N1c1cccc(OS(=O)(=O)c2ccccc2)c1	4%	-21	0	2	-1.4
Cc1cccc(OCCNC(=O)c2cccc(Oc3ccc(C(F)(F)F)cc3[N+](=O)[O-])c2)c1	7%	-6	-4	6	6.0
CCOc1ccccc1NC(=O)C(OC(=O)C1CC1)c1ccccc1 (centres undefined)	0%	.	.	36	-11
Cc1cccc(N2CCCC2=Nc2ccc(Br)cc2C#N)c1	2%	-39	2	7	-0.7

3 successive records already listed, quoted:
SMILES	Mtb growth	YopH inh	Arbovirus anti	Mtb betalactam	RecA intein inh	others
Fc1cccc(-n2cc(-c3ccccc3)c3c(=S)nc[nH]c32)c1	.	.	.	12	11
O=C(/C=C/c1ccc(Cl)c(Cl)c1)N1CCc2ccccc21	-3%	-28	12	3	-2.9
O=S(=O)(NC1CCCCC1N1CCC(O)CC1)c1ccccc1 (centres undefined)	.	.	.	5	1.0

The results go on:
SMILES	Mtb growth	YopH inh	Arbovirus anti	Mtb betalactam	RecA intein inh	others
COCc1cc(OC(=O)N(C)C)nc(-c2ccccc2)n1	9%	.	.	-2	2.7
CS(=O)(=O)N1CCN=C1SCc1ccc([N+](=O)[O-])cc1	-1%	.	3	-10	0.3
CCOC(=O)c1nn(-c2ccc(C)cc2)cc1O	8%	-11	7	61	-4.2
CC1(C)CC(=O)c2c(nn(-c3ccccc3)c2-c2ccncc2)C1	-2%	3	10	-18	-0.2
O=C(Nc1ccccc1N1CCOCC1)c1cc(-c2ccncc2)nc2ccccc12	-7%	.	23	9	1.8
CCOC(=O)c1sc(NC(=O)CSc2nccc(C)n2)nc1C	-8%	.	14	51	1.5
O=C(COC(=O)/C=C/c1nc2ccccc2s1)Nc1cccc(Cl)c1Cl	>100µM*	11	2	32	-3.0
Cc1cccc(N2CCN(C(=O)Cc3ccccc3[N+](=O)[O-])CC2)c1C	.	.	.	-3	-1.5
CNC(=O)c1ccsc1NC(=O)CCS(=O)(=O)c1ccccc1	6%	.	12	2	3.4
COC(=O)c1ccc(OC(=O)c2ccc(OC)c(OC)c2)c(OC)c1	-5%	-53	-5	99	2.4
Cc1ccc(NC(=O)C(CC(C)C)NC(N)=O)cc1Cl (centres undefined)	3%	19	2	-10	0.0
Cc1c(OCC(F)(F)F)ccnc1CS(=O)c1nc2ccccc2[nH]1 (centres undefined)	0%&21%	4	0&-15	18	2.3
CC(=O)c1c(C)[nH]c(C(=O)Nc2cc(C)ccc2C)c1C	-2%	-38	-7	2	1.9	Arbovirus anti repeat=-2
COC(=O)[C@@H]1C[C@@]2(O)[C@H](O)[C@H](O)[C@H](O)C[C@H]2N1Cc1ccc(-c2ccccc2)cc1	-13%	.	.	5	-1.3
c1ccc2oc(CCc3nc4ccccc4o3)nc2c1	1%	.	.	-3	-1.2
O=C(Nc1ccc2c(c1)OCO2)C1CCN(C(=O)CSc2ncnc3ccccc23)CC1	1%	-9	.	-3	.
Cc1ccccc1-c1cc2c(nn1)-c1ccccc1C2=O	-7%	18	-44	97	75*
C=CCn1c(O)c(/C(C)=N/N2CCCCC2)c(=O)[nH]c1=O	-3%	.	.	-18	-2.6
O=C1CCC(=O)N1c1ccc(-c2nc3sc4c(c3c(=O)o2)CCC4)cc1	80%	.	.	99	-3.2
Cc1ccc(C)c(S(=O)(=O)N/N=C2/CCCc3ccccc32)c1	-3%	6	3	2	0.9
